# KCNQ2 pot: potentiators of rat KCNQ2 potassium channel; CHO-K1 KCNQ2, FluxOR thallium flux fluorescence; stronger effect = higher value; O88943; B-score at 10 µM; hit rate 0.54% among 310,000;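 active = fluorescence ratio B-score at least 3 SD of library B-scores, with initial fluorescence B-score within 3 SD, cut at about 5.3 in these data; same plate scores as AID 2156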;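 note: B-score of peak minus minimum over baseline fluorescence ratio after K+ and Tl+ stimulus; positive B-score means potentiation of KCNQ2 with more thallium influx and brighter signal; only the inactives scoring about 0 or higher are listed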
# Target sequence (O88943 whole entry, looked up): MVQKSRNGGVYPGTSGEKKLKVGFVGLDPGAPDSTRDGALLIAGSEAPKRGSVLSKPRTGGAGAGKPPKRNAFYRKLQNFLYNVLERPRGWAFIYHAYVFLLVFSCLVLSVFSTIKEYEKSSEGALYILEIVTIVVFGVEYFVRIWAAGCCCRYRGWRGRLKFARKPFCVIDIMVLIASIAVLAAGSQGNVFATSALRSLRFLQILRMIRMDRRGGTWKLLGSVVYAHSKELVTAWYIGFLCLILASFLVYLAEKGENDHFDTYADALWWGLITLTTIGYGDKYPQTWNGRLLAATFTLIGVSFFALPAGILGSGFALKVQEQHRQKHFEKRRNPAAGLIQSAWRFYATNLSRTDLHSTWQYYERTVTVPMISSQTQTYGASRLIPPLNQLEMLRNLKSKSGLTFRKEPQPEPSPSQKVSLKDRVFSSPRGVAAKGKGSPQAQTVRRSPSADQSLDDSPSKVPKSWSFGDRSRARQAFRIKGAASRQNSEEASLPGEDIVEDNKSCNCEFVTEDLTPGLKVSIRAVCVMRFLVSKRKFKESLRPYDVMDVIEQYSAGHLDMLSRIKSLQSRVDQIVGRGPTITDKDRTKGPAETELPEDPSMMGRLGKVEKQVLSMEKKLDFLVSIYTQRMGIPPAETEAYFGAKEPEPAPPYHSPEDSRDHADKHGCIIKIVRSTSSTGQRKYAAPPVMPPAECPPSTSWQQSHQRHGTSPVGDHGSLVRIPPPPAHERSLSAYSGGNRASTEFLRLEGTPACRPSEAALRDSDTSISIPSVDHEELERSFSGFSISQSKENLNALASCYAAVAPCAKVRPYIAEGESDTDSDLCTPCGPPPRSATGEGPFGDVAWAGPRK
# KCNQ2 pot baseline: further read-out of KCNQ2 pot, marked with its call; B-score; compound at 10 µM; measured here: initial fluorescence intensity artifact check;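 brightness before thallium and not channel activity; 0 = typical well and far values either way flag optical interference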
# * hit, by the source's call. Not all compounds are listed; rates above refer to the full screens.
KCNQ2 pot | KCNQ2 pot baseline | Compound
0.68 | -0.67 | O=C(OCC1CCCN2CCCCC12)c1ccc2c(c1)OCO2 (configuration not stated)
0.67 | -1.7 | Cc1nc2ccc3[nH]snc3c2n1
1.1 | -0.18 | Cc1cccc(C(=O)NC(C(=O)Nc2nc(-c3ccccn3)cs2)C(C)C)c1 (configuration not stated)
0.03 | 1.2 | CCOC(=O)c1ccc(NC(=O)CCc2nnc3ccc(N4CCCC4)nn23)cc1
0.57 | 0.19 | CC1CN(C(=S)Nc2ccccc2F)CC(C)O1 (configuration not stated)
0.19 | 0.25 | CC(C#N)Sc1nnc(-c2ccccc2F)n1C1CC1 (configuration not stated)
0.85 | 0 | O=S(=O)(c1ccc(Br)s1)N1CCc2ccccc2C1
0.13 | -1.4 | COc1ccc(/C=N/NS(=O)(=O)c2ccc(C)cc2)cc1
0.02 | -0.26 | Cc1ccc[n+](C(C)C(=O)Nc2ccc(C)c([N+](=O)[O-])c2)c1 (configuration not stated)
0.77 | -1.8 | O=[N+]([O-])c1ccc(COc2ncnc3ccccc23)cc1

# Compound profiles, from the list above:
# CC1CN(C(=S)Nc2ccccc2F)CC(C)O1 (configuration not stated) across the screens: KCNQ2 pot = 0.57; KCNQ2 pot baseline = 0.19
# CC(C#N)Sc1nnc(-c2ccccc2F)n1C1CC1 (configuration not stated) across the screens: KCNQ2 pot = 0.19; KCNQ2 pot baseline = 0.25

# Continued.
KCNQ2 pot | KCNQ2 pot baseline | Compound
0.75 | 0.28 | Cc1ccc(NC(=O)C(C)S)cc1 (configuration not stated)
0.81 | -0.06 | CCCCOCCCNC(=O)c1cccs1
1.6 | -0.69 | COc1cc(CCCN2C(=O)C(=O)NC[C@@H]2C(C)O)cc(OC)c1OC (some centres not stated)
3.8 | -0.1 | Cc1ccc(-c2csc(NC(=S)NC(=O)c3cccs3)n2)cc1
0.01 | -0.37 | O=C(Nc1ccc2c(c1)CCC2)Nc1ccccc1Cl
0.01 | 0.35 | CCOC(=O)c1ccc(NC(=O)CN(C)S(=O)(=O)c2ccc(OC)cc2)cc1
1.8 | 0.38 | CC(=O)c1c(C)[nH]c(C(=O)Nc2nccs2)c1C
0.01 | 0.15 | COc1ccc(NC(=O)CCNC(=O)c2ccco2)cc1S(=O)(=O)N(C)C
1.1 | -0.62 | Cc1csc(NC(=O)CN2CCCCCC2)n1
2.1 | -0.05 | CNC(=O)N/N=C(\N)c1ccccn1
0.38 | -1.7 | CC1(C)CC(=O)C(C=Nc2ccc3c(c2)OCO3)=C(O)C1
0.96 | -0.75 | COC(=O)c1ccc(/C=C2/SC(=S)N(CCC(=O)NCCCN3CCOCC3)C2=O)cc1
0.49 | -2.2 | Cc1ccc(S(=O)(=O)CCc2nnc(NC(=O)c3cccs3)s2)cc1
0.49 | 1.8 | CCN(CC(=O)Nc1c(F)cccc1F)C(=O)/C=C/c1ccc(C)o1
0.74 | -1.8 | COc1ccc(CNC(=O)C2(CC(=O)NC(C)(C)C)CCCC2)cc1
1.5 | 0.64 | Cc1ccc(S(=O)(=O)NN=C2CCN(Cc3ccccc3)CC2)cc1
0.01 | 0.03 | CCOCC(=O)Nc1cccc(OC)c1
2.9 | -0.43 | NC(=O)CNC1CC(=O)N(CCc2ccccc2)C1=O (configuration not stated)
0.08 | 1.3 | O=C(NC1CCCc2ccccc21)c1ccc(Br)cc1 (configuration not stated)
1.1 | 0.15 | CC(=O)c1ccc(OCCCC(=O)Nc2cccc(S(=O)(=O)N(C)C)c2)cc1
0.79 | -2.5 | CNS(=O)(=O)c1ccc(NC(=O)c2ccc(Cl)cc2Cl)cc1
1.7 | -0.34 | COc1cccc(-c2cc(C(=O)Nc3c(C)n(C)n(-c4ccccc4)c3=O)no2)c1
0.72 | -0.96 | CCOC(=O)N1CCN(C(=O)CC(=O)Nc2ccc3nc4n(c(=O)c3c2)CCCCC4)CC1
0.6 | -0.47 | O=C(CCN1C(=O)c2ccccc2C1=O)OCn1nnc2ccccc2c1=O
0.23 | -0.04 | O=C(CCC(=O)N(CC(=O)NC1CCCC1)Cc1ccccc1)Nc1nccs1
4.5 | 0.95 | Cc1ccoc1C(=O)Nc1cccc2ccccc12
0.52 | 1.3 | CC(C)(C)OC(=O)N1CCC(c2c(C(=O)O)cnn2-c2ccccc2Cl)CC1
0.17 | 0.95 | COc1ccc(OCC(=O)NNC(=S)NC(=O)C2CCCCC2)cc1
1.8 | -0.28 | N#C/C(=N\Nc1ccc(Cl)cc1)C(=O)c1ccsc1
0.01 | 0.02 | CCOc1ccc(CNC(=S)NCc2ccc(OCC)cc2)cc1

# Filtered by structure, the entries above with a thiophene ring, fused or not
KCNQ2 pot | KCNQ2 pot baseline | Compound
0.85 | 0 | O=S(=O)(c1ccc(Br)s1)N1CCc2ccccc2C1
0.81 | -0.06 | CCCCOCCCNC(=O)c1cccs1
3.8 | -0.1 | Cc1ccc(-c2csc(NC(=S)NC(=O)c3cccs3)n2)cc1
0.49 | -2.2 | Cc1ccc(S(=O)(=O)CCc2nnc(NC(=O)c3cccs3)s2)cc1
1.8 | -0.28 | N#C/C(=N\Nc1ccc(Cl)cc1)C(=O)c1ccsc1

# Carrying on:
KCNQ2 pot | KCNQ2 pot baseline | Compound
0.76 | -1.2 | O=C(CN(C(=O)C1CSC(=O)C1)c1ccc(F)cc1)NCc1ccc2c(c1)OCO2 (configuration not stated)
0.44 | 1.6 | Cn1cc2ccc([N+](=O)[O-])cc2n1
1.4 | -1.7 | Cc1ccc(N/C(SCc2ccccc2C)=C(/C#N)C(=O)NCc2ccco2)cc1C
0.07 | -0.12 | CCc1cc(C(=O)c2ccc(OC)cc2)c(N)s1
0.79 | -0.22 | CCc1nc(NC(=O)c2sc(C)nc2C)sc1C(=O)OC
4 | -1.6 | O=c1c(C(c2ccccc2)c2c(O)sc3ccccc3c2=O)c(O)sc2ccccc12
1.4 | 0.58 | COc1ccc(-c2nnc(NC(=O)c3cc(C)on3)s2)cc1
0.25 | -1.8 | CCOc1ccc(CN(CC)C(=O)Cc2c[nH]c3ccccc23)cc1OC
1.4 | 0.13 | COc1cc(/C=N/NC(=O)C(=O)NCC2CCCO2)ccc1O (configuration not stated)
0.64 | -1.8 | CN(c1ccccc1)c1ccc(/C=N/N2CCOCC2)cc1
0.02 | 0 | CC(C(=O)c1ccccc1)[n+]1cccc(Br)c1 (configuration not stated)
0.01 | 0.24 | CSc1ncccc1C(=O)N1CCCC(CCC(=O)NCc2ccccc2F)C1 (configuration not stated)
0.37 | 0.52 | O=C(CN(Cc1ccc2c(c1)OCO2)C(=O)CNS(=O)(=O)c1ccccc1)NCc1ccco1
5.2 | -0.04 | CC1CCN(C(=O)COC(=O)c2ccc3c(c2)OCO3)CC1
0.46 | 0.2 | COc1cccc(/C=N/NC(=O)CNC(=O)/C=C\c2ccccc2)c1O
0.07 | 5.1 | CC(=O)Nc1ccc(N=Cc2ccc(OCc3ccccc3)cc2)cc1
0.27 | 0.87 | Cc1cccc(N(CC(=O)N/N=C/c2ccc(C(=O)O)cc2)S(=O)(=O)c2ccccc2)c1C
0.11 | -0.21 | COC(=O)C(=Cc1ccc(-c2ccsc2C(=O)OC)o1)C(=O)OC
0.01 | -0.49 | Cc1nn2c(NCc3cccnc3)c3c(nc2c1-c1ccccc1)CCC3
1.5 | -0.99 | COc1ccc(S(=O)(=O)N2CCC(C(=O)N3CCCC3)CC2)cc1
5.5* | -0.5* | COc1ccc(NC(=O)/C(Cl)=C(/Cl)S(=O)(=O)Cc2ccccc2)cn1
0.45 | 1.1 | Cc1cccc(C(=O)N/C(=C\c2ccc(C)o2)C(=O)O)c1
0.09 | 0 | COC(=O)c1ccc2c(=O)n(CCCCCC(=O)NCc3ccc4c(c3)OCO4)c(=O)[nH]c2c1
1.1 | 2.4 | O=C(CSc1ccc2c(c1)OCCO2)NC(=O)Cc1ccccc1
1.2 | 0.03 | COC(CN1C(=O)C(=O)/C(=C(/O)c2ccccc2)C1c1ccccn1)OC (configuration not stated)
1.8 | 0.22 | CC(C)C(NS(=O)(=O)c1cccs1)C(=O)NCc1ccc2c(c1)OCO2 (configuration not stated)
0.9 | 0.33 | CC(C)CN1CCC(=O)N([C@H](CO)Cc2ccccc2)CC1
0.03 | 1.5 | CCSC1=NC(C)(C)C=C(C)N1
1 | -0.22 | COc1cc(NC(=O)c2ccco2)c(OC)cc1NC(=O)c1cc(OC)c(OC)c(OC)c1
2.5 | -0.1 | COc1ccccc1C(=O)COC(=O)Cc1n[nH]c(=O)c2ccccc12
0.41 | 2.5 | CCOP(=O)(c1ccc(N(C)C)cc1)C(O)c1c(Cl)cccc1Cl (configuration not stated)
0.51 | -1.5 | COc1cc(/C=N/NC(=O)c2cccc(N3CCCC3=O)c2)ccc1O
0.07 | 0.65 | COc1ccc(N=C2C(=O)Nc3ccc(C)c(Br)c32)cc1
0.76 | -0.04 | C=CCSc1nc2sc3c(c2c(=O)n1CC)CCC3
0.89 | 0.62 | O=c1c2ccccc2nnn1CSc1ccccc1F
1.9 | -0.48 | Cc1ccc(CC2(O)CC(C)N(C)CC2C)c(C)c1 (configuration not stated)
0.47 | -0.22 | COC(=O)c1c(NC(=O)CSc2n[nH]c(N)n2)sc(C)c1C
0.39 | 0.26 | CC(=O)Nc1ccc(C(=O)NCC(=O)OCc2c(F)cccc2Cl)cc1
1.3 | -0.92 | CN1C(=O)/C(=C/c2ccco2)SC1=Nc1ccc(N2CCOCC2)cc1
1.6 | -0.76 | Cc1cccc(-n2ncc3c(NCCCN4CCCC4=O)ncnc32)c1
0.18 | -0.05 | CCOc1ccc(NS(=O)(=O)c2ccc(C(=O)NCC(c3cccs3)N3CCOCC3)cc2)cc1 (configuration not stated)
0.01 | 1.1 | Cc1ccccc1NC(=O)Cc1nc(COC(=O)C(C)C)cs1
0.18 | -3 | Cc1ccc(CN(C(=O)c2ccccc2C)C2CCS(=O)(=O)C2)o1 (configuration not stated)
0.58 | 0.88 | CC(C)(C)c1ccc(S(=O)(=O)N2CCCC2C(=O)N2CCOCC2)cc1 (configuration not stated)
1.3 | -1.5 | CN(C)S(=O)(=O)c1ccc(NC(=O)Cn2c(-c3ccccc3)noc2=O)cc1
0.26 | -1.6 | Cc1onc(-c2c(F)cccc2Cl)c1C(=O)Nc1cccc2nsnc12
1.3 | 0.09 | CC(=O)C(C)n1c(CN(C)Cc2ccccc2)nc2c1c(=O)n(C)c(=O)n2C (configuration not stated)
1.1 | -2.7 | COC(=O)[C@]1(CC(C)C)N[C@H](c2ccc(-c3ccc(OC)cc3)cc2)[C@@H]2C(=O)N(C)C(=O)[C@@H]21
0.14 | -0.69 | CCOCCCNC(=O)c1cc2c(=O)n3cccc(C)c3nc2s1
7.9* | -1.4* | O=C(CSc1nc(-c2ccco2)cc(C(F)(F)F)n1)N1CCN(c2cccc(Cl)c2)CC1

# Next section:
KCNQ2 pot | KCNQ2 pot baseline | Compound
0.28 | -0.56 | CCCCCCn1c(SCCC)nc2c1c(=O)[nH]c(=O)n2C
1.7 | -0.77 | O=C(c1ccc(CS(=O)Cc2ccccc2Cl)o1)N1CCN(C2CCCCC2)CC1 (configuration not stated)
0.5 | 0.01 | CCCCN(CCCC)/C(N)=N/c1nc(C)cc(C)n1
0.55 | -0.62 | O=C(NNc1cccc(Cl)n1)c1ccc(Cl)nc1
0.61 | 1.2 | Cc1ccc(Cn2nc(C)c(NC(=O)c3cc(-c4ccc5c(c4)OCO5)on3)c2C)cc1
0.04 | -0.3 | COc1ccc(Oc2nnnn2-c2ccccc2)cc1
1.7 | -0.1 | C=CCSC1=NC(N)=C(C#N)C2(CCCCC2)C1C(N)=O (configuration not stated)
0.34 | -2 | O=C(CS(=O)(=O)c1ccccc1)Nc1ccc(S(=O)(=O)Nc2ccccn2)cc1
1.7 | 0.69 | Cc1nc(Nc2ccccc2Cl)sc1C(=O)Nc1ccccc1
1.2 | 1.4 | O=C(c1ccccc1NS(=O)(=O)c1ccc(Cl)cc1)N1CCc2ccccc21
0.3 | 0.07 | C=CCn1c(CCSCc2ccc(OC)c(C)c2)n[nH]c1=S
0.18 | 0.13 | O=C(CCCC(=O)N1CCCC1)N1CCCC1
0.11 | 1.6 | Cn1c(-c2ccccc2)cc2c3no[n+]([O-])c3ccc21
1.1 | -0.15 | Cc1cccc(CCNC(=O)C2CCC(CNS(=O)(=O)c3cccs3)CC2)c1 (configuration not stated)
1.4 | -1 | CCN(CC)S(=O)(=O)c1ccc2c(c1)nc(SCC(=O)N1CCOCC1)n2-c1ccccc1OC
0.61 | -1.1 | Cc1ccc(S(=O)(=O)N2CCCCC2)cc1NC(=O)CSc1nnnn1C
0.65 | -0.7 | COCCNc1nc2c(-c3cccc(C(F)(F)F)c3)nnn2c2ccccc12
0.41 | -0.99 | CC(C)(C)NC(=O)C(=O)NNC(=O)c1cccc([N+](=O)[O-])c1
0.57 | 0.24 | CCN(CC)C(=O)c1sc(NC(=O)c2ccco2)c(C#N)c1C
0.47 | -0.33 | COc1ccc(OC)c2sc(NC(=O)CCS(=O)(=O)c3ccccc3)nc12
3.5 | 1.2 | Cn1c(NC(=O)c2ccccc2)nc2ccccc21
6* | -1.3* | COc1ccc(-c2n[nH]c(C)c2-c2ccccc2OC)c(O)c1
0.38 | -0.6 | O=C(COC(=O)c1sc2ccccc2c1Cl)NCC1CCCCC1
0.41 | 1.6 | CCCOc1cccc(C(=O)NCCNC(=O)c2ccco2)c1
1.3 | -0.42 | COc1ccc(NC(=O)c2oc3ccccc3c2NC(=O)COc2ccccc2OC)c(OC)c1
0.23 | 1.7 | CCOC(=O)c1ccc(-n2c(-c3ccco3)nc3ccccc3c2=O)cc1
0.48 | 0.25 | CCOC(=O)c1sc(C)c2c1NC1(CCCCC1)NC2=O
0.06 | 0.01 | CC(=O)Nc1c(O)nc(SCC(=O)N2CCN(c3ccc(F)cc3)CC2)[nH]c1=O
0.2 | -0.2 | N#Cc1c(NC(=O)Cn2nc(C(F)(F)F)c3c2CCCC3)sc2c1CCC2

# Compound activity deposited in PubChem BioAssay by Johns Hopkins Ion Channel Center.
